Screening results deposited in PubChem BioAssay by National Center for Advancing Translational Sciences (NCATS).
Menin MLL FP FL: qHTS Assay for Inhibitors Targeting the Menin-MLL Interaction in MLL Related Leukemias: Competition With Fluorescein Labeled MLL-derived Peptide; Fluorescence polarization, fluorescein-MLL peptide displacement from menin; FP activity change, % at 61.4 µM; 290,000 tested, under 10 active; inconclusive = falling polarisation curve, or a change in total fluorescence; inactive = total fluorescence flat and polarisation flat or rising; no compound was filed as active; the % refers to the polarisation; negative = inhibition;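 also: % of control where 0% means no effect; inhibitors lower the polarisation; unlabelled MLL peptide was the positive control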
TRPML1 inh: qHTS for Inhibitors of the Human Mucolipin Transient Receptor Potential 1 (TRPML1). Mucolipin-1 (Homo sapiens), Q9GZU1. TRPML1-inducible cells, Ca2+ dye fluorescence, FDSS; hits give low values; inhibition of EC80 agonist-evoked calcium signal. activity change, negative = inhibition, % (concentration not given with the values). 0.02% of 390,000 active; in the data active means activity change below about -50%; inconclusive means about -30% to -50%; inactive means above about -30%;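 also: stimulus is agonist 54-4 at its EC80 concentration; % is scaled to controls: 0 for no effect and ±100 for the full control effect; compound concentration not given in the record; the text of the record puts the active cut at -80%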
Target sequence (Q9GZU1 whole entry, looked up): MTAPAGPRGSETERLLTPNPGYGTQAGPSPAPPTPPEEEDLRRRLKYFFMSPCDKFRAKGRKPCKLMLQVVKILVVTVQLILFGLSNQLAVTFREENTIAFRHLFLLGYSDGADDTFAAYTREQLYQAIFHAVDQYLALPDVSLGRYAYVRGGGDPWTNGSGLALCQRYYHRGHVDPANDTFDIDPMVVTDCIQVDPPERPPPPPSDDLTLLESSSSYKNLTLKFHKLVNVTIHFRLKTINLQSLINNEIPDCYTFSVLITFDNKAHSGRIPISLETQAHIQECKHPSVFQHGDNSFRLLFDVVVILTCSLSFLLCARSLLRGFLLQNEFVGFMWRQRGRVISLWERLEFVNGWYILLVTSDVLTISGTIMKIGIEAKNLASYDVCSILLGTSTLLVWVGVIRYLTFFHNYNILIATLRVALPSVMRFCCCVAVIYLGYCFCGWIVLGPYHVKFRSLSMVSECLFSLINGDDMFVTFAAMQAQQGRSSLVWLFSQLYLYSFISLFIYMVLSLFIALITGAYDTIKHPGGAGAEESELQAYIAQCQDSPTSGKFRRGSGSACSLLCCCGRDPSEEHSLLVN
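Calcium fluorescence in TRPML1-DL cells induced overnight with Tet: a 110 s read after compound pin addition, then a 110 s antagonist read after challenge with 54-4 at 4 uM final (EC80).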
TRPV1 PAM: HTS Assay for Compounds that Act as Potentiators of the Vanilloid Receptor 1 | TRPV1-expressing cells, Fluo-8 calcium influx, capsaicin EC20 potentiation; host cell line not named in the record; control for the full effect not named in the record | potentiation, % at 8.33 µM | 0.02% of 320,000 active | AID 540277, 2011; active means potentiation above 80%; inconclusive means 30% to 80%; inactive means below 30%; also: 0% is about no effect
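TRPV1-expressing cells were cultured overnight at 35.5C and loaded with Fluo-8 calcium dye for 40 to 90 min at room temperature. After a 10 s baseline, compound was added and calcium influx was read kinetically for 3 min (ex 480/em 520 nm).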
TRPML1 ag: qHTS for Agonists of the Human Mucolipin Transient Receptor Potential 1 (TRPML1); activation, % (no concentration beside the values); 0.12% of 410,000 active; Mucolipin-1 (Homo sapiens), Q9GZU1; TRPML1-expressing cells, Ca2+ dye fluorescence, FDSS; host cell line not named in the record; reference of the full effect not given here; AID 624414, 2012; in the data active = activation above about 50%; inconclusive = about 30% to 50%; inactive = below about 30%; also: 0% is about no effect; the text of the record puts the active cut at 80%
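Cells: TRPML1-DL, 1X Tet inducer, ~16 h at 37 degrees C/5% CO2. Dye: ABD Ca8 no-wash + quencher, 45-90 min RT. Read: 10 s baseline, compound add, 110 s agonist phase; 54-4 EC80 (4uM final), 110 s antagonist phase.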
ClpP mod: qHTS Assay for Activators of ClpP; ATP-dependent Clp protease proteolytic subunit (Bacillus subtilis (strain 168)), P80244; purified B. subtilis ClpP, FRET peptide cleavage, 20 min; Potency, µM (doses to about 57.5 µM), for the others: top-dose activity change, negative = active; 1.9% of 340,000 active; AID 651965, 2013; active = well fitted falling curve with a large enough effect; inconclusive = small, poorly fitted or top-dose-only effect; inactive = no such curve, though single readings can be large or run the other way; also: potency is read from the fitted curve at half-maximal effect; the source files actives as falling curves though it sought activators and does not explain the sign; nearly all actives have a fitted effect of over 65% in size; many hits overshoot -100%
Target sequence (P80244 whole entry, looked up): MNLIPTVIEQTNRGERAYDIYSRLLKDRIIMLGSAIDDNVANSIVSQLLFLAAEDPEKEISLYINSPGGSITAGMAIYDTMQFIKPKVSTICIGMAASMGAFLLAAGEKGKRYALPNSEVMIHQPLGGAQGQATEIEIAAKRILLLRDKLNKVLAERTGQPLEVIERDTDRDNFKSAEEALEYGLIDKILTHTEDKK
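Buffer: 100 mM Tris/HCl pH8, 100 mM KCl, 0.05% low protease BSA, 2.5% glycerol, 0.01% Tween-20. ClpP 10 microg/mL final; 20 min RT; delta FRET normalized to ADEP and DMSO controls.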
PINK1 modulator: A Quantitative High throughput Screen to Identify Chemical Modulators of PINK1 Expression; AID 624263, 2012; Potency, µM (titrated, usually from 76.6 µM), for the others: at the highest dose activation (PINK1 increase), actives largely listed as activators; 0.2% of 410,000 active; PINK1 immunofluorescence, high-content cytometry, 24 h; active = well fitted activation curve with a large enough effect; inconclusive = small, poorly fitted or top-dose-only effect; inactive = flat fitted curve, though single readings scatter; cell line not stated here;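 also: potency is read from the fitted curve at half-maximal effect; % of control where 0% means no effect; nearly all actives have a fitted effect of over 65% in size; a mitochondrial uncoupler was the plate control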
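Measures PINK1 amount and localization on or inside mitochondria by immunofluorescence. Stable cells get compounds at 5 concentrations for 24 hours before fixation and staining; CCCP controls included.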
Sfp PPTase inh: qHTS Assay for Inhibitors of Bacillus subtilis Sfp phosphopantetheinyl transferase (PPTase); 4'-phosphopantetheinyl transferase ffp (Bacillus subtilis), Q9F4F7; Biochemical Sfp PPTase activity, qHTS; Potency, µM, for inactives: max response, negative = inhibition, usual class: inhibitors; 3.5% of 310,000 active; active = well fitted inhibition curve with a large enough effect; inconclusive = small, poorly fitted or top-dose-only effect, or another doubt; inactive = no such curve, though single readings can be large or run the other way;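 also: the enzyme is Sfp with the accession as filed and its product quenches rhodamine fluorescence; potency is read from the fitted curve at half-maximal effect; 0% = enzyme reaction without inhibitor and -100% = no enzyme wells; top concentration of the series not given in the record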
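Step 1, compound plus 15 nM Sfp-PPTase, 15 min, room temperature. Step 2, add rhodamine-CoA (5 uM) and BHQ-2-YbbR (12.5 uM). Step 3, read 525/598 nm fluorescence at 0 and 30 min.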
The depositor's hits bear a star; ? = inconclusive; nt = no result given; & = joins results of further samples; [ ] = remark or other dose.

Each structure is followed by: Menin MLL FP FL	TRPML1 inh	TRPV1 PAM	TRPML1 ag	ClpP mod	PINK1 modulator	Sfp PPTase inh
> CCn1c(CNC(=O)COc2ccc(C(C)C)cc2)nnc1SCC(=O)NC1CCCCC1C (stereo not given)
  -1.7	-8	22	-0.2	-1.3%	1.0%	-7%
> CC(C)N(CCNC(=O)c1oc(=O)c2ccccc2c1-c1ccccc1)Cc1ccco1
  -0.6	-9	?	1.2	nt	-0.6%	18%
> COc1ccc(C2/C=C\CN(C(=O)CC(C)C)CC(=O)N2Cc2ccc(F)cc2)cc1 (stereo not given)
  5.8&4.3	42&-11	6	1.7&-0.3	1.5%	-0.3%	-2%&-8%
> CCc1ccc(Oc2c(C(F)(F)F)oc3c(CN4CCC(C)CC4)c(O)ccc3c2=O)cc1
  nt	-21	nt	1.3	1.4%	19%	nt
> COc1ccccc1N1CCN(S(=O)(=O)c2c(C)[nH]c(C)c2C(=O)N2CCCC2)CC1
  nt	-1	15	0.0	1.0%	-0.9%	16%
> Cc1ccc(C(=O)OCC(=O)NCCN2C(=O)CSC2=O)cc1
  1.6	5	3	0.0	nt	-0.7%	6%
> O=C(NNC(=O)C1COc2ccccc2O1)c1ccccc1O (stereo not given)
  nt	-7	-8	-0.4	?	0.5%	nt
> O=C(c1cc(S(=O)(=O)Nc2ccccc2F)c(Cl)cc1Cl)N1CCN(CCO)CC1
  -4.7	2	5	0.0	-4.0%	1.1%	10%
> CSc1nsc(SC)c1NC(=O)Nc1ccccn1
  1.6	-4	6	1.8	-0.8%	-2.5%[38.3 µM]	8%
> N#CCc1ccc(NS(=O)(=O)c2cccs2)cc1
  3.1	9	-11	-1.0	-1.4%	-4.5%	14%
> O=C(Cc1ccccc1)N(Cc1cccnc1)c1nc2c(F)cccc2s1
  nt	29	nt	3.4	-1.0%	0.9%	nt
> O=C(O)c1cc(-c2ccc(/C=N/Nc3ccc(Cl)cc3)o2)ccc1Cl
  6.4	3	-2	0.2	-13%	3.0%[38.3 µM]	-21%
> COC(=O)c1ccn(CC(=O)NC2CCCCC2)n1
  nt	1	-7	-0.6	274%	3.0%	12%
> Cc1cn(C2CC3OCC3O2)c(=O)[nH]c1=O (stereo not given)
  -0.9	-13	-23	0.7	0.3%	1.3%	19%
> CCc1nc2c(sc3nc4c(cc32)COC(C)(C)C4)c(=O)n1CCN(CC)CC
  -4.8	16	-3	0.9	-8.7%	0.7%	11%
> O=C(NCC(=O)N1CCN(c2ccc([N+](=O)[O-])cc2)CC1)c1ccco1
  nt	9	nt	-0.9	nt	4.3%	nt
> CSCCC(NC(=O)c1ccc(Cl)cc1Cl)C(=O)N1CCN(C(=O)c2ccccc2)CC1 (stereo not given)
  nt	10	nt	-0.3	-0.2%	0.3%	nt
> COc1cc(C(=O)OCCCN(C)C)cc(OC)c1OC
  2.7	-15	5	0.9	nt	-0.4%	26%
> Cc1csc(NS(=O)(=O)c2ccc(Cl)cc2)n1
  0.3	5	-5	-1.0	0.1%	-0.7%	5%
> Fc1cccc(Cc2c(-c3ccco3)nc3ccc(Cl)cn23)c1
  nt	5	nt	0.2	4.9%	2.3%	nt
> CCOc1ccc(CN(C)C(=O)CNC(=O)c2ccccc2)cc1
  7.9	4	5	2.2	nt	0.4%	9%
> Cc1ccc(NC(=O)CN(C)C(=O)COC(=O)C(C)(C)Oc2ccc(Cl)cc2)cc1
  nt	-13	8	2.5	-2.0%	-0.4%	20%
> Cc1cc(CN(C)C(=O)c2cc(COc3ccc4ncccc4c3)on2)on1
  1.1	-4	-6	-0.4	-6.7%	-1.2%	14%
> Oc1ccc(N=Cc2cc(Br)c(N3CCOCC3)o2)cc1
  18	-10	8	1.2	0.7%	-1.3%	40µM*
> Cc1cc(NC(=O)c2ccc([N+](=O)[O-])cc2)no1
  -8.2	3	6	0.0	-0.9%	0.3%	2%
> C=CCn1c(SCC(=O)Nc2c(C)n(C)n(-c3ccccc3)c2=O)nc2sc(C)c(-c3ccccc3)c2c1=O
  3.5	-2	6	-1.2	-1.2%	-0.2%	-5%
> CN(C)c1ncnc2c1ncn2[C@H]1CN(Cc2ccc(Cl)cc2)C[C@@H](CO)O1
  nt	nt	nt	-0.4	0.1%	1.5%	nt
> Cc1cccc(-c2cc(NCCc3cccnc3)n3nccc3n2)c1
  nt	nt	nt	-0.7	4.3%	0.1%	nt
> CCOC(=O)N1CCC(NC(=O)c2ccc3c(c2)sc2nc(-c4ccccc4)cn23)CC1
  15	-5	nt	1.1	?	1.2%	?
> COCc1cc(C)nc2sc3c(=O)oc(C)nc3c12
  -1.2	25	-6	-0.3	-1.7%	-2.1%	6%
> CC1CC(C)CN(CCCNC(=O)c2ccc3c(c2)NC(=O)C(N2CCCCC2)S3)C1 (stereo not given)
  -7.3	4	-18	0.3	-0.8%	-1.2%	27%
> O=c1[nH]c2sc3c(c2c2nncn12)CCCC3
  -7.0	51	-6	3.8	?	-6.7%[38.3 µM]	3%
> COC(=O)CN(Cc1ccco1)S(=O)(=O)c1ccccc1
  5.7	1	-3	0.8	-3.8%	nt	56µM*
> O=S(=O)(c1cc(Cl)ccc1Cl)n1cccn1
  0.1	-15	7	0.1	nt	-0.8%	14%
> COc1cc(OC)nc(Nc2nc(C(N)CCc3ccccc3)cs2)n1 (stereo not given)
  nt	nt	nt	1.0	-1.6%	-1.2%	nt
> CCOc1ccc(C2c3c(oc4ccccc4c3=O)C(=O)N2CCCN2CCOCC2)cc1OCC (stereo not given)
  -1.5	14	-12	5.6	-3.3%	-2.2%	?
> CC(=O)Nc1ccc(NC(=O)CCCc2c[nH]c3ccccc23)cc1
  -4.5	-6	-3	0.5	nt	-1.4%	3%
> COc1cc2oc(=O)ccc2cc1[C@@H](O)[C@@H]1OC(C)(C)OC1(C)C
  nt	9	6	0.2	4.5%	0.2%	nt
> Cc1[nH]c2ccccc2c1C(c1c(C)[nH]c2ccccc12)c1c(C)[nH]c2ccccc12
  nt	nt	nt	0.3	0.0%	3.6%	nt
> COc1ccc(C(=O)OCn2nnc3ccccc3c2=O)cc1OC
  -7.2	28	13	-0.8	-3.3%	-0.6%	2%
> COc1ccc(CCNC(=O)Cc2c(C)c3c(cc(C)c4c(C)c(C)oc43)oc2=O)cc1OC
  nt	0	nt	-0.3	-28%	-0.1%	nt
> COCCNC(=O)C1(C)CCCN(Cc2csc3ccccc23)C1 (stereo not given)
  nt	nt	nt	-0.8	-3.5%	3.4%	nt
> CC1CCCCC12NC(=O)N(CC(=O)Nc1ccccc1F)C2=O (stereo not given)
  nt	4	12	-0.4	-3.2%	3.5%	nt
> O=C(CCCc1nc2ccccc2s1)NCc1cccnc1
  -0.5	12	-3	2.3	1.0%	1.1%	27%
> COC(=O)C1CCN(c2cc(=O)n(-c3ccc(OC)cc3)c(=O)[nH]2)CC1
  -2.5	-1	5	0.1	1.6%	-1.6%	-1%

Looked up one by one from above, two records:
Each structure is followed by: Menin MLL FP FL	TRPML1 inh	TRPV1 PAM	TRPML1 ag	ClpP mod	PINK1 modulator	Sfp PPTase inh
> CC1CCCCC12NC(=O)N(CC(=O)Nc1ccccc1F)C2=O (stereo not given)
  nt	4	12	-0.4	-3.2%	3.5%	nt
> Cc1[nH]c2ccccc2c1C(c1c(C)[nH]c2ccccc12)c1c(C)[nH]c2ccccc12
  nt	nt	nt	0.3	0.0%	3.6%	nt

The main list resumes with the five entries that preceded the break.
Each structure is followed by: Menin MLL FP FL	TRPML1 inh	TRPV1 PAM	TRPML1 ag	ClpP mod	PINK1 modulator	Sfp PPTase inh
> COc1ccc(CCNC(=O)Cc2c(C)c3c(cc(C)c4c(C)c(C)oc43)oc2=O)cc1OC
  nt	0	nt	-0.3	-28%	-0.1%	nt
> COCCNC(=O)C1(C)CCCN(Cc2csc3ccccc23)C1 (stereo not given)
  nt	nt	nt	-0.8	-3.5%	3.4%	nt
> CC1CCCCC12NC(=O)N(CC(=O)Nc1ccccc1F)C2=O (stereo not given)
  nt	4	12	-0.4	-3.2%	3.5%	nt
> O=C(CCCc1nc2ccccc2s1)NCc1cccnc1
  -0.5	12	-3	2.3	1.0%	1.1%	27%
> COC(=O)C1CCN(c2cc(=O)n(-c3ccc(OC)cc3)c(=O)[nH]2)CC1
  -2.5	-1	5	0.1	1.6%	-1.6%	-1%
> CCC1(c2ccc(OC)cc2)NC(=O)N(CC(=O)N2CCc3ccccc32)C1=O (stereo not given)
  nt	8	1	7.5	1.4%	-1.6%	nt
> CC1=C(C(=O)OCc2ccccc2)C(c2ccc3ccccc3c2)NC(=O)N1CCCC(=O)O (stereo not given)
  2.4	0	11	1.4	-2.8%	-0.4%	0%
> COc1ccc(CNS(=O)(=O)c2ccccc2Br)cc1
  -3.0&0.6	-10	2	0.2	nt	nt	-14%&2%
> COc1ccccc1CNC(=O)CN(C)CC(=O)Nc1ccc(F)c(F)c1F
  nt	31	nt	4.7	-2.4%	-0.1%	nt
> O=C(CSc1ccc2nnc(CCNC(=O)c3ccccc3)n2n1)NCc1ccccc1
  nt	0	-15	0.6	-13%	-0.8%	7%
> Cc1ccc(-c2nn(-c3ccccc3)cc2C=C2SC(=S)N(CCS(=O)(=O)O)C2=O)cc1
  nt	26	nt	4.2	-1.7%	2.9%	nt
> CCOC(=O)C1(CCOc2ccccc2)CCN(Cc2cccc(OC)c2OC)CC1
  4.1	-6	-6	-0.6	nt	?	23%
> Brc1ccc(-c2csc(NNC3=NCCCCC3)n2)cc1
  3.4	-3	8	-0.4	0.9%	27%	50µM*
> O=C(CCC1CCCN(C(=O)c2ccccc2Cl)C1)N1CCN(c2ccccn2)CC1 (stereo not given)
  -3.6	8	-5	5.4	3.4%	1.3%	13%
